Screens as filed in PubChem BioAssay.
AmpC nodet inh: Promiscuous and Specific Inhibitors of AmpC Beta-Lactamase (assay without detergent); Potency, µM (top dose mostly 28.7 µM), for inactives: at the top dose activity change, negative = inhibition; hit rate 1.8% among 71,000; AmpC nitrocefin hydrolysis, absorbance 480 nm, no detergent; potencies from a single point are estimates; active = falling curve, for most hits resting on a single point; inconclusive = weak or doubtful change; inactive = flat or rising curve; further: % of control where 0% means no effect; about half of the hits show no inhibition at the top dose; a quarter of the inactives give rising signals
Target sequence (P00811 whole entry, looked up): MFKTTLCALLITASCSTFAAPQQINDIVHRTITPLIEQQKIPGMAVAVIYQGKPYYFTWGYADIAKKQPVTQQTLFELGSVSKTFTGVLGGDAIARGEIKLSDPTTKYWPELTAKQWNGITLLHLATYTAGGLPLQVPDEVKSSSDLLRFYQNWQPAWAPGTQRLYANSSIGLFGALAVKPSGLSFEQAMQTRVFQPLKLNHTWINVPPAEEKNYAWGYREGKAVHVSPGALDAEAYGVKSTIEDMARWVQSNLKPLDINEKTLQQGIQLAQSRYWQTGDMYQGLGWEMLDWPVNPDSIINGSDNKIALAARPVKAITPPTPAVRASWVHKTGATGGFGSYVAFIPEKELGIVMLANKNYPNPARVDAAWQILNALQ
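Enzyme, pH 7.0 phosphate. Compound titrations were pre-incubated with AmpC for 15 min at room temperature before nitrocefin (stock 800 uM) addition; product formation was recorded at 480 nm every 20 s for 4 min.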
Numbers without * were called inactive; ? = inconclusive; & = joins results of further samples; [ ] = remark or other dose. Potency means the concentration at half of the fitted maximal effect. The list is partial, so the mix of outcomes need not match the whole.

SMILES | AmpC nodet inh
CN(Cc1cnn(C)c1)C(=O)c1cc2ccccc2oc1=O | -11%
CCN=C1SC(CC(=O)Nc2sc(C)c(C)c2C(=O)OC)C(=O)N1CC (centres undefined) | 116%
COc1ccc(CCNc2oc(COc3ccccc3F)nc2C#N)cc1OC | 92%
Cc1ccc2nsnc2c1S(=O)(=O)NCc1cccnc1 | -11%
CCOC(=O)N1CCN(c2c(NCCN3CCCCC3CC)c(=O)c2=O)CC1 (centres undefined) | 4µM*[single pt active]
c1cnc(N2CCN(c3ncnc4c3oc3ccccc34)CC2)nc1 | 81%
COc1ccc2c(c1OC)C(=O)OC2c1c(O)n(Cc2ccc(F)cc2)c(=O)[nH]c1=O (centres undefined) | -9%
COCC(=O)NCCc1nc2ccccc2[nH]1 | -2%
Cc1noc(C)c1C(=O)Nc1ccc2c(c1)CCC2 | 7%
Cc1nc2scc(-c3ccccc3)c2c(=O)o1 | -6%
CCOC(=O)Cc1nnc(NC(=O)c2ccccc2OC)s1 | 23%
CN(C)CC(=O)c1ccc(-c2ccccc2)cc1 | 2%
Cc1n[nH]c(=O)nc1N1CCc2ccccc2C1 | -19%
COc1ccccc1S(=O)Cc1ccc(C(=O)NCc2ccccc2Cl)o1 (centres undefined) | 4µM*[single pt active]
COc1ccc(CCNC(=O)CSc2nc3c(c(=O)n(C)c(=O)n3C)n2C(C)C)cc1OC | 28%
CCn1c(=O)c(C(=O)Nc2nc3ccccc3[nH]2)c(O)c2ccccc21 | 72%
Cc1ccc(-c2nc(-c3ccccn3)no2)cc1Cl | 97%
COC(=O)c1ccc(C(=O)OC)c(N)c1 | 7%
O=C(NCc1ccco1)C1CC(=O)N(c2ccc(O)cc2)C1 (centres undefined) | -12%
CCC(C)c1ccc(O)c(NC(=O)c2ncn[nH]2)c1 (centres undefined) | -15%
COCCn1c(SCC#N)nnc1-c1ccc2c(c1)OCO2 | -4%
O=C(CSc1nnc(-c2cccnc2)n1-c1ccccc1)Nc1ccccn1 | 5%
CC1CCCCN1S(=O)(=O)c1ccc2c(c1)oc(=O)n2CC(=O)O (centres undefined) | -10%
Cn1c(=O)c2cc(S(=O)(=O)NCCC(=O)Nc3ccccc3F)ccc2n(C)c1=O | -4%
CCn1c(SCC(=O)N2c3ccccc3CCc3ccccc32)nc2c1c(=O)n(C)c(=O)n2C | 73%

The last 7 compounds of the part before open the next one.
SMILES | AmpC nodet inh
O=C(NCc1ccco1)C1CC(=O)N(c2ccc(O)cc2)C1 (centres undefined) | -12%
CCC(C)c1ccc(O)c(NC(=O)c2ncn[nH]2)c1 (centres undefined) | -15%
COCCn1c(SCC#N)nnc1-c1ccc2c(c1)OCO2 | -4%
O=C(CSc1nnc(-c2cccnc2)n1-c1ccccc1)Nc1ccccn1 | 5%
CC1CCCCN1S(=O)(=O)c1ccc2c(c1)oc(=O)n2CC(=O)O (centres undefined) | -10%
Cn1c(=O)c2cc(S(=O)(=O)NCCC(=O)Nc3ccccc3F)ccc2n(C)c1=O | -4%
CCn1c(SCC(=O)N2c3ccccc3CCc3ccccc32)nc2c1c(=O)n(C)c(=O)n2C | 73%
COc1ccc(C(=O)N2CCN(C(=O)c3ccco3)CC2)cc1OC | 5%
O=c1c2ccccc2nnn1CSc1nnc(-c2ccc3c(c2)OCO3)o1 | 13%
O=c1[nH]c(=S)c2c(n1-c1ccccc1)CCC2 | 9%
CS(=O)(=O)Nc1cccc(-c2nc(Nc3ccncc3)c3ccccc3n2)c1 | -15%
Cc1cc(=O)c2n(Cc3ccccc3Cl)nc[n+]2[nH]1 | -11%
CC(=O)N1c2ccccc2C(C)CC12CCCCC2 (centres undefined) | 9%
CCOc1cc(S(=O)(=O)N2CCOCC2)ccc1F | 5%
CC1CCCCN1C(=O)COc1ccc(NC(=O)c2ccco2)cc1 (centres undefined) | 5%
COc1ccc(-c2nc3cnc(Oc4ccccc4)nc3n(C3CC3)c2=O)cc1 | 60%
CSCC[C@@H](C(=O)O)N(C)C | -6%[5.75 µM]
COC(=O)c1ccc(C2c3c(oc4cc(C)c(C)cc4c3=O)C(=O)N2CCCN(C)C)cc1 (centres undefined) | 103%
CN1CCN(CCCNC(=O)c2ccc(CSCc3cccc(Cl)c3)o2)CC1 | 48%
Cc1cc(C(F)(F)F)n2ncc(C(=O)O)c2n1 | 6%
Cc1ccc(Oc2ccc(OCC(=O)NC(C)C(=O)O)cc2)cc1 (centres undefined) | -1%
CC(=O)N1CCN(c2ccc(NCc3ccc(C(C)C)cc3)cc2)CC1 | 164%
COc1cc2c(cc1OC)-c1nnc(C)n1C1(CCCC1)C2 | 15%
CCOc1cccc(C(=O)Nc2cccc(-c3nc4ncccc4o3)c2C)c1 | 36%
CCOP(=O)(c1ccc(N(C)C)cc1)C(O)c1cc(OC)c(OC)c(OC)c1 (centres undefined) | 16%
CC(C(=O)NC1=NCCS1)N1C(=O)C2CC=CCC2C1=O (centres undefined) | -4%
CC(=O)c1cccc(NC2c3ccccc3C(=O)N2Cc2ccc3c(c2)OCO3)c1 (centres undefined) | 4µM*[single pt active]
Clc1ccc(OCc2nnc3n2N=C(c2ccc4c(c2)OCCO4)CS3)c(Cl)c1 | 8%
c1ccc([C@@H]2CN3CCSC3=N2)cc1 | -7%[12.8 µM]
OC(CN1CCOCC1)CN1CCOCC1 | 4%
CC1(C)Oc2ccc3ccc(=O)oc3c2-c2cnoc21 | 8%
Cn1c(=O)c2c(nc(SCCCO)n2Cc2ccccc2Cl)n(C)c1=O | 75%
Additional entries
SMILES | AmpC nodet inh
CS(=O)(=O)c1ccc([C@H](O)[C@H](CO)NC(=O)C(Cl)Cl)cc1 | 0%[12.8 µM]
COC(=O)Cc1[nH]nc2c1C(c1c[nH]c3ccccc13)C(C#N)=C(N)O2 (centres undefined) | -1%
CCCN(Cc1ccccc1)C(=O)Nc1ccc2c(c1)nnn2C | 8%
COc1ccc(C)cc1NCc1cccc(OC)c1OC | 18%
CCSC(C)CC1C/C(=N/O)c2c(CC)noc2C1 (centres undefined) | -6%
COc1ccc2c(c1)Sc1ccccc1N2CCN(C)C | 28%
Cc1ccc(-c2nc(NC(=O)CSc3nnc4scc(-c5ccccc5)n34)ns2)cc1 | 4µM*[single pt active]
COc1ccc(-c2nc3cnc(N4CCOCC4)nc3n(Cc3cccs3)c2=O)cc1 | 13%
O=C(NC1CCCCC1)c1sc(=S)n2c1[nH]c(=O)c1ccccc12 | ?
O=c1c(-c2ccc(F)c(F)c2)nc2cncnc2n1Cc1ccc(F)cc1 | 13%
O=C(c1csnn1)N1CCC2(CCN(Cc3nccs3)CC2)CC1 | 0%
CCn1c(SCc2nc3ccccc3[nH]2)nnc1-c1ccncc1 | -12%
CCOC(=O)C1CCCN(C(=O)CS(=O)(=O)Cc2ccccc2)C1 (centres undefined) | 5%
O=C(CSc1nnc(-c2cccnc2)n1Cc1ccco1)c1ccccc1 | 23%
CN(CCc1ccccn1)c1ccc2c(c1)Cc1ccccc1-2 | 16%[5.75 µM]
CC1=C(C(=O)OC2CCCCCCC2)C(c2ccc(O)cc2)NC(=O)N1 (centres undefined) | 7%
COC(=O)c1c(C(C)=O)cnc2ccc(Br)cc12 | -13%
CCOC(=O)C1OC1c1ccccc1 (centres undefined) | 6%
COc1ccc(C2C(C(N)=O)=C(C)Nc3ncnn32)cc1 (centres undefined) | -2%
O=C(CN(Cc1ccco1)C(=O)CNS(=O)(=O)c1ccc(Cl)cc1)NC1CCCCC1 | 11%
CC(=O)[C@@H]1[C@H]2[C@@H](C(=O)[C@H]3OC[C@H]2O3)[C@@H]2C=Cc3ccccc3N12 | 71%
C[C@H]1C(=O)O[C@H]2CCN3CC=C(COC(=O)[C@](C)(O)[C@@]1(C)O)[C@H]23 | -5%
C/C(N)=C(/C#N)C(=O)COC(=O)c1ccncc1 | 8%
Cc1nn(CC(=O)NCc2ccccc2)c(=O)c2ccccc12 | 7%
Cc1nc2sccn2c(=O)c1CCN1CCC(=C(c2ccccc2)c2ccc(F)cc2)CC1 | 137%&123%
The listing continues:
SMILES | AmpC nodet inh
CCOC(=O)CNC(=O)Cn1cnc2c(nnn2-c2cccc(Cl)c2)c1=O | -10%
CCOc1ccc(S(=O)(=O)N(CC(N)=O)c2ccc(C)cc2)cc1 | 14%
CC1CCN(C(=O)C(Cc2ccccc2)n2cccc2)CC1 (centres undefined) | 17%
COCC(=O)Nc1nnc(CCc2ccccc2)s1 | 16%
CN(Cc1ccccc1)c1nc2c(c(=O)n(C)c(=O)n2C)n1CCCc1ccccc1 | 124%
Cc1[nH]c(=O)[nH]c(=O)c1S(=O)(=O)N1CCCC(C(=O)N2CCN(c3ccccc3Cl)CC2)C1 (centres undefined) | 72%
O=C(O)CN(c1ccc2c(c1)OCCO2)S(=O)(=O)c1ccccc1 | -4%
COc1ccc(-c2c(C(F)(F)F)oc3c(CN4CCN(C)CC4)c(O)ccc3c2=O)cc1 | 40%
CC(=O)c1c(C)[nH]c(C(=O)NC2=NCCS2)c1C | -21%
O=C(C1CCN(S(=O)(=O)c2ccc(F)cc2)CC1)N1CCOCC1 | 12%
COc1ccc(NC2=C(C(C)=O)C(c3ccc4c(c3)OCO4)C(C(C)=O)C(C)(O)C2)cc1 (centres undefined) | 78%
CC(C)COCC1CC2(CC(C)C(=O)CC2=O)C(=O)O1 (centres undefined) | 1%
Cc1cc(C)cc(CC2CC(=O)N(c3nc(C)cc(C)n3)C2=O)c1 (centres undefined) | 49%
C/C(NCCCn1ccnc1)=C(\C#N)C(N)=O | -8%
N#Cc1c(NC(=O)c2ccncc2)sc2c1CCC2 | -15%
N#CC1=C2SCN(Cc3ccccc3)CN2C(=O)CC1c1ccc2c(c1)OCO2 (centres undefined) | -13%
COc1ccccc1-n1cnnc1SC1CCOC1=O (centres undefined) | 4%
O=c1cc(NCc2ccco2)[nH]c(=O)n1-c1ccc(Br)cc1 | -23%
CCN(CC)CCCN=Cc1c(O)n(-c2ccccc2F)c(=O)[nH]c1=O | 1%
O=C(OCc1cc2ccccc2[nH]c1=O)c1ccncc1 | 0%
c1ccc2c(CCNc3ncnc4nc[nH]c34)c[nH]c2c1 | 4%
c1ccc(CNc2ncnc3ccc(-c4cccnc4)cc23)cc1 | 16%
CCc1ccc2c(c1)N(C[C@H](C)CN(C)C)c1ccccc1S2 | 18%[5.75 µM]
Cc1cccc(NC(=O)c2cc(NC(=O)C3CCCCC3C(=O)O)ccc2N2CCCCC2)c1 (centres undefined) | 0%
CSC1=C(C#N)C(c2ccc(C)cc2)C2=C(CCCC2=O)N1 (centres undefined) | -1%

3 compounds out of the list, ordered by molar mass, smallest number first.
SMILES | AmpC nodet inh
N#Cc1c(NC(=O)c2ccncc2)sc2c1CCC2 | -15%
Cc1cccc(NC(=O)c2cc(NC(=O)C3CCCCC3C(=O)O)ccc2N2CCCCC2)c1 (centres undefined) | 0%
Cc1[nH]c(=O)[nH]c(=O)c1S(=O)(=O)N1CCCC(C(=O)N2CCN(c3ccccc3Cl)CC2)C1 (centres undefined) | 72%

Other structures:
SMILES | AmpC nodet inh
CCN1CCC[C@@H]1CNC(=O)c1cc(S(N)(=O)=O)ccc1OC | 24%&-7%&-3%
CC(=O)N1CCc2cc(S(=O)(=O)NCCC(=O)NCCc3ccccc3)ccc21 | 14%
CCc1nnc(NC(=O)c2ccc(COc3ccc(C)cc3)o2)s1 | -21%
Cc1cccc(Cn2c(Sc3nc(C)cs3)nc3c2c(=O)[nH]c(=O)n3C)c1 | 14%
CCOc1ccc2[nH]c(=O)c(C(c3nnnn3Cc3ccco3)N3CCC(C)CC3)cc2c1 (centres undefined) | 8%
Clc1ccc(Br)cc1-c1nc(-c2cccnc2)no1 | -8%
CCOc1cc(S(=O)(=O)NCCc2ccccc2C)c(OCC)cc1-n1cnnn1 | 65%
CCN(CC)C(=O)C1CCCN(c2ncnc3c2cnn3-c2cccc(C)c2)C1 (centres undefined) | 138%
CCOc1ccc(CCNC(=O)CN(C)S(=O)(=O)c2ccc3c(c2)CCC(=O)N3)cc1OCC | 78%
O=C(Oc1cccnc1)c1ccc(Cl)cc1 | -10%
NC(=O)c1sc(=S)n(-c2ccc(Br)cc2)c1N | -12%
O=C(CN(Cc1ccc2c(c1)OCO2)C(=O)CNS(=O)(=O)c1ccccc1)NCC1CCCO1 (centres undefined) | 20%
CCC1(C)OC(=O)N2CCc3c(C)[nH]c4c(C)ccc(c34)C21C (centres undefined) | 50%
CCOC(=O)N1CCC(N2CC34C=CC(O3)C(C(=O)Nc3ccc(C(C)C)cc3)C4C2=O)CC1 (centres undefined) | 111%
Nc1nc(SCC(=O)N2CCc3ccccc3C2)[nH]c(=O)c1-c1ccccc1 | 4%
CCOC(=O)N1CCN(C(=O)CCCn2c(=S)[nH]c3ccccc3c2=O)CC1 | 8%
Cc1cc(S(=O)(=O)NCc2ccco2)c(C)s1 | 10%
O=C(Nc1nc(-c2ccc(Cl)s2)cs1)c1cccs1 | ?
O=C(O)CCSc1nnc(-c2ccncc2)n1-c1ccccc1 | -1%
COc1ccc(Oc2ncc3ncc(=O)n(Cc4cccc(OC)c4)c3n2)cc1 | 89%
COc1ccc(C2Nc3ccccc3C(=O)N2Cc2ccco2)cc1COc1ccc(NC(C)=O)cc1 (centres undefined) | 50%
CCOC(=O)c1nnn(-c2nonc2N)c1CNc1ccccc1 | 12%
N#Cc1cccc(NC(=O)N2CCC3(CC2)CCN(C(=O)c2cnccn2)CC3)c1 | 4%
Cc1cc(C)nc(Nc2n[nH]c(COc3ccc(Cl)cc3)n2)n1 | -20%

Grouped by structure, the compounds so far containing a COOH group
SMILES | AmpC nodet inh
CC1CCCCN1S(=O)(=O)c1ccc2c(c1)oc(=O)n2CC(=O)O (centres undefined) | -10%
CSCC[C@@H](C(=O)O)N(C)C | -6%[5.75 µM]
Cc1cc(C(F)(F)F)n2ncc(C(=O)O)c2n1 | 6%
Cc1ccc(Oc2ccc(OCC(=O)NC(C)C(=O)O)cc2)cc1 (centres undefined) | -1%
O=C(O)CN(c1ccc2c(c1)OCCO2)S(=O)(=O)c1ccccc1 | -4%
Cc1cccc(NC(=O)c2cc(NC(=O)C3CCCCC3C(=O)O)ccc2N2CCCCC2)c1 (centres undefined) | 0%
O=C(O)CCSc1nnc(-c2ccncc2)n1-c1ccccc1 | -1%
